# HCMV NEC inh – inhibitors of HCMV UL50-UL53 nuclear egress complex interaction | HTRF UL50-UL53 interaction, normalized percent inhibition | AID 1918969 | inhibition, % (no concentration beside the values) | hit rate 0.15% among 190,000;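 active = both replicates at 50% or more, plus weaker picks with an unusually low signal ratio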;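 also: stock transfer was 100 nL into about 20 µL; 0% = negative control wells and 100% = wells with untagged competitor protein; inactives centre near -12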
# Sa growth inh – inhibitors of Staphylococcus aureus growth at 42 °C; relative growth, % (concentration not given with the values); AID 720641; hit rate 0.53% among 170,000; S. aureus RN4220 growth, OD600, 20 h; stronger effect = lower value;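 active = growth at 42 °C up to 50% and 20 or more points under that at 30 °C, or under 10% at both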;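 also: 300 nL library stock went into each well; scaled to the means of positive and negative controls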
# GIV Gai3 FP – inhibitors of GIV GBA-motif binding to rat Galpha-i3; percent of control (FP), % (test concentration not listed); Galpha-i3/FITC-GIV peptide fluorescence polarization, 90 min; stronger effect = lower value; scaled: aluminum fluoride 0%, vehicle 100%; hit rate 0.42% among 210,000; P08753;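 active = replicate mean at 85% of control or lower, very high polarization wells dropped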;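 also: wells of about 15 µL received 100 nL stock; the first replicate is given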
# Target sequence (P08753 whole entry, looked up): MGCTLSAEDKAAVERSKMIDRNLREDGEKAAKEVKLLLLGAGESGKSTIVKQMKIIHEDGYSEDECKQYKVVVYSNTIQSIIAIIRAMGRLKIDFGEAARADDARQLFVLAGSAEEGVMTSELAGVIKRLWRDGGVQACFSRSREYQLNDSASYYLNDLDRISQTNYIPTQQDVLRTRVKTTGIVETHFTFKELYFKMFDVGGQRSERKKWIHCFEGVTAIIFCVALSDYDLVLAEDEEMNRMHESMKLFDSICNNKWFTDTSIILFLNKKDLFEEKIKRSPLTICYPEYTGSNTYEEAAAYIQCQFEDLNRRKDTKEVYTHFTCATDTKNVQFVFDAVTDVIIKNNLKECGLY
# Sa growth inh second temp – further read-out of Sa growth inh, marked with its call; relative growth, %; measured here: growth at 30 °C;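 optical density after 20 h as mean of two plates; 100% = untreated growth and lower means inhibition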
# Numbers without * were called inactive; . = no result given; & = joins results of further samples.
SMILES,HCMV NEC inh,Sa growth inh,Sa growth inh second temp,GIV Gai3 FP
CN(C1=NS(=O)(=O)c2ccccc21)c1ccc(OC(=O)c2ccc([N+](=O)[O-])cc2)cc1,-23,.,.,100
COc1cc(OC)c(NC(=O)C2CCN(C(=O)c3cccn3-c3cccnc3)CC2)cc1Cl,-33,.,.,100
Cc1ccc(NC(=O)CSc2nnc(-c3cc4occc4n3C)n2-c2ccccc2C)c(Cl)c1,.,128,108,113
Cc1oc2cc(Br)c(OCc3ccccc3F)cc2c1C(=O)OC(C)C,-27,.,.,101
COc1ccc2[nH]c3c(c2c1)CN(C)CC3,.,102,92,108
NS(=O)(=O)c1ccc(CCNC(=O)c2ccc3c(=O)n4c(nc3c2)CCCCC4)cc1,-17,100,86,.
COc1ccc(Cn2cnc3c4ccccc4n(CC(=O)Nc4ccc(F)c(F)c4)c3c2=O)cc1,-28,.,.,104
CCN(CC)C(=O)C1CCCN(C/C=C/c2ccccc2)C1 (stereo not given),-10,97,86,101
C=CCNc1nc(C(=O)OCC(=O)N(C)C2CCS(=O)(=O)C2)cs1 (stereo not given),-32,71,89,.
O=C(c1csc(-c2ccc(Cl)cc2)c1)N1CCCCC1,4,106,93,105
CC(C)CNC(=O)N1Cc2c(sc3c2CCN(C)C3)-n2cccc2C1c1ccccc1 (stereo not given),-1,.,.,122
CC(C)(C#N)NC(=O)Nc1ccccc1,.,101,95,101

# Reprinted from the results shown, 3 compounds:
SMILES,HCMV NEC inh,Sa growth inh,Sa growth inh second temp,GIV Gai3 FP
O=C(c1csc(-c2ccc(Cl)cc2)c1)N1CCCCC1,4,106,93,105
CC(C)CNC(=O)N1Cc2c(sc3c2CCN(C)C3)-n2cccc2C1c1ccccc1 (stereo not given),-1,.,.,122
CC(C)(C#N)NC(=O)Nc1ccccc1,.,101,95,101

# Additional entries follow.
SMILES,HCMV NEC inh,Sa growth inh,Sa growth inh second temp,GIV Gai3 FP
CCn1cc(C(=O)NC2CCCCCCC2)c(=O)c2cc(S(=O)(=O)N(C)C)ccc21,-1,94,99,112
CCCNC(=O)Nc1cc(C(=O)NCc2cccc(OCC)c2)ccc1N1CCCC1,.,72,87,100
COc1cccc(Nc2nc3ccccc3nc2NS(=O)(=O)c2cccs2)c1,-21,112,81,.
O=CN/N=C/c1ccc(C(=O)O)cc1,-45,95,89,.
CC1CC(C)CN(C(=O)c2ccc3c(c2)N(Cc2ccccc2)C(=O)c2ccccc2S3=O)C1 (stereo not given),.,81,66,105
C=CCn1ncc(OC)c(Cl)c1=O,-20,107,102,101
O=C(OCCN1C(=O)c2ccccc2C1=O)c1ccccc1,.,109,72,99
CC1=C(C(=O)Nc2ccccc2F)C(c2ccccc2)C2=C(CC(c3ccccc3)CC2=O)N1 (stereo not given),-6,112,94,102
COC(=O)c1cccc(NC(=O)c2ccccc2C(=O)O)c1,.,95,91,107
Nc1ncnc2nc(SCCO)[nH]c12,-14,110,95,113
O=C(OCc1ncc(-c2ccccc2)o1)c1cc2c(s1)CCC2,-38,91,84,.
Cc1nc(N2CCOCC2)c2c(C(=O)N3CCN(c4cccc(C(F)(F)F)c4)CC3)c(C)oc2n1,.,84,82,100
COCCCN1C(=S)NC2c3cccc(OC)c3OC1(C)C2C(=O)N(C)C (stereo not given),-27,100,95,96
CCOC(=O)c1c(C)oc2ccc(OCC(N)=O)cc12,10,69,99,103
O=[N+]([O-])c1cccc2cn[nH]c12,-97&-136&-131,77,84,94
Cc1ccccc1C(=O)N1CCC(c2nc(-c3ccc(S(=O)(=O)N4CCCC4)cc3)no2)CC1,-2&-5,83,91,107&93
O=C(CSc1nc2nccnc2c(=O)n1CCc1c[nH]c2ccccc12)Nc1ccccc1F,-18,110,68,104
CC(C)CNC(=O)C1=CC(c2ccc3c(c2)OCO3)=NS(=O)(=O)N1C,-26,134,93,103
C=CCn1c(NCc2cccs2)nc2ccccc21,6,108,93,106
CCN(CC)c1nc2c(c(=O)n(C)c(=O)n2C)n1CC(=O)c1ccc(OC)cc1,-2,103,90,103
Cn1c(SCc2ccc(C(F)(F)F)cc2)nc2c([nH]c3ccccc32)c1=O,.,115,88,108
CCN(CC)S(=O)(=O)c1ccc2c(c1)ncn2CCC(=O)N1CCN(c2ccc(F)cc2)CC1,-17,.,.,108
Oc1ccc(/C=N/n2c(-c3ccco3)csc2=Nc2ccc(F)cc2F)c(O)c1,20,69,95,.
Cc1cc(N2CCOCC2)c(F)cc1C(=O)c1ccccc1,-23,101,88,92

# Next part (2 carried over from the part before).
SMILES,HCMV NEC inh,Sa growth inh,Sa growth inh second temp,GIV Gai3 FP
Oc1ccc(/C=N/n2c(-c3ccco3)csc2=Nc2ccc(F)cc2F)c(O)c1,20,69,95,.
Cc1cc(N2CCOCC2)c(F)cc1C(=O)c1ccccc1,-23,101,88,92
CC(Oc1cccc(Cl)c1)C(=O)O/N=C(\N)c1cccnc1 (stereo not given),-11,109,98,102
COc1ccc(-c2cn3c(n2)sc2cc(C(=O)Nc4cc(OC)cc(OC)c4)ccc23)cc1,.,84,77,117
COC(=O)C1=C(Nc2ccccc2NC(=O)c2ccco2)CSC1,-6,107,86,108
COc1cc(/C=C/c2nc(C#N)c(N3CCN(C)CC3)o2)cc(OC)c1OC,-31,85,89,97
O=C(Cn1c(=O)ccc2cc(S(=O)(=O)N3CCCC3)ccc21)Nc1ccccc1,.,119,92,98
O=C(O)c1ccc(N2C(=O)CCC2=O)cc1,-3,107,95,.
COc1ccc2c(c1)[nH]c1c(=O)n(Cc3ccccc3Cl)cnc12,0,.,.,100
COCCNC(=O)CCCn1c(SCC(=O)Nc2ccc(F)cc2)nc2c(sc3ccccc32)c1=O,-32,114,76,100
Cc1cc(NC(=O)C(C)(C)C)cc(-c2nc3ncccc3o2)c1O,-7,97,94,103
Cc1oc2ncnc(N3CCCCC3)c2c1C(=O)N1CCN(c2cccc(Cl)c2)CC1,.,116,91,101
CSc1ncc(Cl)c(C(=O)Nc2nnc(SCc3ccc(F)cc3)s2)n1,.,92,47,105
CCn1c(SC(C)C(=O)NC(N)=O)nc2ccccc2c1=O (stereo not given),-14,70,90,.
CCOc1ccc(NC(=O)CCS(=O)(=O)c2ccc(Br)s2)cc1,-13,93,85,103
CC1CCc2nn(CC(=O)N3CCc4ccccc43)cc2C1 (stereo not given),-3,102,95,104
Cn1cc(C(=O)NCCCN2CCCC2)c2c3ccccc3n(C)c2c1=O,.,109,95,106
COc1ccccc1-n1c(-c2cccs2)nn(CN2CCCC(O)C2)c1=S (stereo not given),-25,80,84,.
Cc1cccc(C(C)C)c1NC(=O)c1cccnc1,-32,83,83,102
COc1ccc(-c2cn3cccnc3n2)cc1NC(=O)c1cc(OC)c(OC)c(OC)c1,-42,105,88,102
O=C(Nc1ccc2c(c1)OCCO2)N1CCC(n2cnc3cccnc32)CC1,0,.,.,97
Cc1cc(C(=O)OCC(=O)C(C)(C)C)c(C)o1,-5,109,89,.
Cc1cc(NC(=O)Nc2cn(C)c(=O)c3ccccc23)no1,.,73,89,102
CN(C)c1ccc(NC(=O)Cn2cc(S(=O)(=O)Cc3ccccc3Cl)c3ccccc32)cc1,.,107,81,103
COc1ccc2c(=O)c(-c3ccccn3)coc2c1,-6,54,74,99
CCCCC(=O)N1c2ccccc2NC2=C(C(=O)CCC2)C1c1ccc(N(C)C)cc1 (stereo not given),-30,92,81,99
CCOC(=O)c1c(C=O)oc2c(C)cc(OC(=O)c3ccc(C)cc3)c(Br)c12,4,.,.,105
C=CCn1cc(C(=O)c2cc(C)ccc2O)cc(C#N)c1=O,-20,93,90,.
Cc1ccccc1NC(=O)C1(N(C)C(=O)Cn2nnnc2N)CCCCC1,-8,96,93,.
COc1ccc(C2Nc3nc4ccccc4n3C(N)=C2C#N)cc1 (stereo not given),-15,112,97,112
COc1ccc(Nc2oc(-c3ccc(COc4cccc(C)c4)o3)nc2C#N)cc1,12,101,81,101
CSCCSc1nnnn1-c1ccc(O)cc1,-11,89,75,.
CCc1ccccc1NC(=O)c1nnn(-c2ccc(F)cc2)c1C,-8,87,93,98
Cc1cccc(NC(=O)CSc2nc(C)c(Cc3ccccc3)c(=O)[nH]2)c1,10,98,84,103
Cc1nc(N2CCN(c3ccccn3)CC2)c2c(C)c(C(=O)N3CCN(C)CC3)sc2n1,-16,.,.,105
CCn1c(=O)sc2cccc(Cl)c21,-12,91,102,107
CCOC(=O)c1oc2ccc(Br)cc2c1CSc1nnc(C)s1,-4,101,97,.
CC1CCCCC1NC(=O)CSc1nncs1 (stereo not given),-45,94,86,.
COC(=O)c1ccc(S(=O)(=O)NCc2ccc(N3CCN(C)CC3)cc2)o1,-16,100,100,104
C=CCSc1nnc2c(n1)OC(CC)Nc1ccccc1-2 (stereo not given),-18,104,95,95
CN(c1ccccc1)C1(O)C(=O)c2ccccc2C1=O,-17,105,82,106
O=C(CCCc1nc(-c2ccccc2)no1)Nc1ccccc1,.,110,90,105
Cc1ccc(NC(=O)c2c(C)oc3ccc(O)c(CN4CCOCC4)c23)c(C)c1,-14,99,84,101
O=C(NC1=NCCS1)c1ccccc1OCc1ccccc1,-6,117,88,.
C=CCn1c(SCC(=O)OCC)nc2cc(C(=O)NCc3ccco3)ccc2c1=O,.,112,80,103
CCc1ccc(S(=O)(=O)c2cn(CC(=O)Nc3cccc(C)c3)c3ccc(Cl)cc3c2=O)cc1,-19,112,78,103
NC(=O)C(C(=O)/C=C/c1ccccc1)=C1SCCS1,-10,88,78,.
Cc1ccc(NC(=O)Cn2c(C(F)(F)F)nc3ccccc32)cc1,2,.,.,102
CN(C)Cc1n[nH]c(=S)o1,9,89,95,.
CCCCNc1c2c(c(C#N)c3nc4ccccc4n13)CCC2,-3,116,110,106
CCOC(=O)c1nc(-c2cc[n+](C)cc2)no1,-94,86,84,98
COC(=O)c1nnn(CC(=O)NC(=O)Nc2ccccc2)c1C(=O)OC,-8,108,88,94
CCOC(=O)N1CCC(NC(=O)c2ccc3nc(N4CCOCC4)sc3c2)CC1,-1,80,82,105
CC1=C(c2ccc(F)cc2)S(=O)(=O)N=C1N1CCC(C(=O)NCCc2ccccc2C)CC1,.,114,94,107
CC1CCN(S(=O)(=O)c2ccc3ncn(CC(=O)Nc4nc5ccccc5s4)c(=O)c3c2)CC1,-6,.,.,101
CCOc1cc(C2c3c(oc4ccccc4c3=O)C(=O)N2Cc2ccc(OC)cc2)ccc1O (stereo not given),-55,107,104,101
C=CCn1c(=O)c(C(=O)Nc2ccc(Cl)cc2)c(O)c2ccccc21,-3,.,.,104
COCc1nc2ccccc2n1CCCCOc1ccc(C)cc1,-20,.,.,104
CN1c2cc(Cl)ccc2-c2nc(SCC(=O)Nc3ccc(F)cc3F)ncc2S1(=O)=O,.,89,88,104
Nc1nnc(CCc2ccccc2)s1,-52,88,105,109
CC(CN1C(=O)c2cc3sccc3n2CC1(C)C(=O)NC1CCCC1)c1ccccc1 (stereo not given),-8,.,.,97
COc1cc(NC(=O)Nc2c[nH]c(=O)[nH]c2=O)cc(OC)c1OC,.,90,89,105

# 5 entries picked at random from those above, as already listed:
SMILES,HCMV NEC inh,Sa growth inh,Sa growth inh second temp,GIV Gai3 FP
Nc1nnc(CCc2ccccc2)s1,-52,88,105,109
CC1=C(c2ccc(F)cc2)S(=O)(=O)N=C1N1CCC(C(=O)NCCc2ccccc2C)CC1,.,114,94,107
CCOC(=O)c1nc(-c2cc[n+](C)cc2)no1,-94,86,84,98
C=CCn1c(=O)c(C(=O)Nc2ccc(Cl)cc2)c(O)c2ccccc21,-3,.,.,104
CC(CN1C(=O)c2cc3sccc3n2CC1(C)C(=O)NC1CCCC1)c1ccccc1 (stereo not given),-8,.,.,97

# (further entries)
SMILES,HCMV NEC inh,Sa growth inh,Sa growth inh second temp,GIV Gai3 FP
COc1cccc(NC(=O)c2cc3c(=O)oc4ccccc4c3s2)c1,.,105,84,102
C=CCn1c(C)cc(C(=O)CSc2nc3ccccc3[nH]2)c1C,-8,97,74,.
Cn1cnnc1Sc1ccc(Cl)cc1N,-4,79,92,.
Fc1ccc(N2CCN(c3nc4ccccc4c4nncn34)CC2)cc1,-2,.,.,104
CCc1nc2nc(C)c(NS(=O)(=O)c3ccc(C)cc3)c(=O)n2[nH]1,-7,105,94,104
CC1CCCC(NC(=O)COC(=O)CCc2ccccc2)C1C (stereo not given),-31,125,83,.
O=C(CCc1ccccc1)NCC1COC2(CCCCC2)O1 (stereo not given),-23,79,86,101
CC(=NCCc1ccccc1)C1=C(O)CSC1=O,4,95,88,.
C[C@H]1CC2C([C@@H](O)C[C@@]3(C)C2CC[C@]3(O)C(=O)CO)[C@@]2(C)C=CC(=O)C=C12 (stereo not given in full),-16,93,91,.
Cc1cccc(C2C3=C(Nc4c2c(=O)[nH]c(=O)n4C)c2ccccc2C3=O)c1 (stereo not given),-31,108,92,109
Cc1cccc(OCC(=O)Nc2nonc2-c2ccc(Br)cc2)c1C,-16,111,85,106
O=C(O)c1ccc(CN2CCCCC2)o1,-6,133,84,.
Cc1cc(S(=O)(=O)[C@H]2CS(=O)(=O)C[C@@H]2N2CCCC2)ccc1F,-17,.,.,99
Cc1cc(C)nc(SCC(=O)Oc2ccc3oc(=O)cc(C)c3c2)n1,-27,87,78,100
CCOc1ccccc1-c1n[nH]c(=S)n1N,-27,74,77,.

# High-throughput results deposited in PubChem BioAssay by ICCB-Longwood Screening Facility, Harvard Medical School.
